Compound activity (PubChem BioAssay)
RecA intein inh: inhibitors of M. tuberculosis RecA intein splicing; P9WHJ3; cell-free RecA intein splicing, fluorescence; inhibition, %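 (about 9 µM by stock and volumes)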; 290,000 compounds, 0.75% hits; AID 2221; in the data active = inhibition above about 30%; inconclusive = no clear call, values can overlap the other calls;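 also: 0% = vehicle wells and 100% = reference inhibitor control wells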
Target sequence (P9WHJ3 whole entry, looked up): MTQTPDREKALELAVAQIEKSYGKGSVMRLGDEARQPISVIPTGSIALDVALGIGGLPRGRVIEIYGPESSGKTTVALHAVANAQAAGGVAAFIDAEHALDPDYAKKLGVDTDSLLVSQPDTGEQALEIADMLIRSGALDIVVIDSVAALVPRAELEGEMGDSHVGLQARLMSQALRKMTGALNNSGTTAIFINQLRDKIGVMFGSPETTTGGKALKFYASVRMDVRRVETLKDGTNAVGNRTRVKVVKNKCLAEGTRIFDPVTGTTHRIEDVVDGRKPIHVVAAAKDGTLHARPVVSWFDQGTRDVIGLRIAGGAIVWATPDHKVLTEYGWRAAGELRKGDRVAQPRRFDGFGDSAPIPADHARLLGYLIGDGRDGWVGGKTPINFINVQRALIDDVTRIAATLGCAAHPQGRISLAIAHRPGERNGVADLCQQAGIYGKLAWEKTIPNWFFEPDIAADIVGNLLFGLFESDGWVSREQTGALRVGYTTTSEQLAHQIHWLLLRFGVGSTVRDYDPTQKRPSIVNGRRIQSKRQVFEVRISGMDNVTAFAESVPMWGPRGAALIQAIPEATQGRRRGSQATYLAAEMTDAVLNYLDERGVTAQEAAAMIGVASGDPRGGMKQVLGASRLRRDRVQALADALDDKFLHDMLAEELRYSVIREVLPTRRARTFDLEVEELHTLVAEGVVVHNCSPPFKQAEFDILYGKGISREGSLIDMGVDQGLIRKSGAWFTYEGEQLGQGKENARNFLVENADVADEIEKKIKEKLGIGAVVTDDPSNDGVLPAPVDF
Mtb betalactam: beta-lactam sensitization of Mtb H37Rv; 330,000 compounds, 0.27% hits; M. tuberculosis H37Rv growth with meropenem, percent inhibition; hits of this screen are not shown here; inhibition, % at 25 µM;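 active = about 74% or more and at least 40 points above the plate without the antibiotic, then above 30% in a dose series; inconclusive = first-round hits that could not be retested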;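 also: growth measured after seven days incubation then overnight dye step; 0% = bacteria only wells and 100% = bacteria with antibiotic; twin plates without the antibiotic show which effects depend on it; some results filed as inactive read as strong as hits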
YopH inh: YopH (Yersinia) phosphatase inhibition; inhibition, %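 (about 10 µM by stock and volumes)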; fluorescence Ex485/Em525; 140,000 compounds, 0.16% hits; AID 898;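 active = inhibition of 50% or more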;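 also: controls were vehicle for no effect and minimum signal wells for full effect; inactives centre near -20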
Mtb H37Rv: M. tuberculosis H37Rv growth inhibitors, H37Rv strain (AID 1626) | M. tuberculosis H37Rv growth inhibition; higher % means a stronger effect | one-dose inhibition, % at 10 µM; IC50 in µM for titrated hits | 220,000 compounds, 0.95% hits;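 active = confirmed in a dose series; inconclusive = inhibition above 80% but not taken into the dose series; inactive = below 80% or under 30% at every dose of the series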;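 also: bacteria incubated seven days before Alamar blue readout; 0% = bacteria only wells and 100% = bacteria with antibiotic wells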
Arbovirus anti: antivirals against arbovirus infection; arbovirus infection cell-based antiviral screen; inhibition, % at 10 µM; 200,000 compounds, 0.37% hits;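 active = inhibition from about 30%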;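 also: bluetongue infection of BSR cells; cell survival read as ATP light after 72 h; 0% = infected wells without compound and 100% = uninfected wells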
Arbovirus anti repeat: further read-out of Arbovirus anti, marked with its call; inhibition, %; measured here: 10K subset replicate screen; many hits read low in the repeat;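 first of two repeat runs on a subset; 0% = infected and 100% = uninfected wells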
The depositor's hits bear a star; ? = inconclusive; / = not tested or not shown; & = joins results of further samples. Some of the compounds tested; the hit share may differ from the screen's.

SMILES	RecA intein inh	Mtb betalactam	YopH inh	Mtb H37Rv	Arbovirus anti	others
CCOC(=O)C1CCN(C(=S)Nc2ccccc2)CC1	0.0	-7	/	-14%	22
Cc1cc(Br)ccc1OCCNCc1ccccc1	3.7	-5	/	-1%	-3
Nc1ccc(Oc2c(Cl)cccc2Cl)nc1	2.1	-9	/	-4%	/
CCc1nnc(NC(=O)c2ccc(OCc3c(C)noc3C)c(OC)c2)s1	-0.5	-2	/	-6%	-1
O=C1c2ccccc2C(=O)N1CCc1nc(-c2cccnc2)no1	-1.0	-5	-22	-11%	-1
COc1c(Cl)cc(Br)c(OC)c1C(=O)NC(=O)Nc1nc(C)cc(C)n1	/	-2	/	2%	/
COCCCn1c(=O)c2sccc2n2c(CCCC(=O)NCc3ccc(F)cc3)nnc12	-5.1	1	/	/	/
CCOc1ccc(CCNC(=O)C2CCN(C(=O)N(C)C)CC2)cc1OCC	-4.0	2	-29	-3%	-2
NC(=O)c1ccc(NC(=O)CSc2nnc(-c3cccnc3)n2Cc2ccco2)cc1	-1.7	2	/	/	/
COc1ccc(Cl)cc1NC(=O)C(=O)NC1CCCCCC1	3.9	-8	6	2%	4
COc1ccc2[nH]c(=O)c(C(=O)O)cc2c1	-12	2	/	-5%	15
S=C(Nc1ccccc1)N1CCc2ccccc21	0.0	7	/	/	/
Cc1c(C(=O)Cc2ccccc2)n(C)c2ccccc12	1.8	54	/	2%	8
CC(=O)c1ccc(N(C)C)cc1	2.8	-6	-5	3%	-5
CCOc1cc(S(=O)(=O)n2ccnc2)ccc1Cl	-0.2	-4	/	10%	5
COc1ccc(-n2ccnc(SCC(=O)NCc3ccccc3Cl)c2=O)cc1	-3.6	2	/	/	/
CC(C)Cc1nnc(NC(=O)C2CCN(C(=O)c3ccc(F)cc3)CC2)s1	1.5	-11	/	/	/
Cc1ccc(S(=O)(=O)NCC(c2ccc3c(c2)OCO3)N2CCN(c3ccccc3)CC2)cc1 (centres undefined)	-1.6	9	/	/	/
Cc1ccn(CCNC(=O)C2CCC(=O)N(CCc3ccc(Cl)cc3)C2)n1 (centres undefined)	0.3	-11	/	/	/
COC(=O)C1=C(c2ccccc2)C[C@@H]2CC[C@H]1N2C(=O)N1CCC(O)CC1	-0.9	-3	/	-5%	/
Cc1ccc(/C=N/NC(=O)c2ccc3nc[nH]c3c2)o1	-1.7	3	/	10%	/
COc1cc(NC(=O)C/C(C)=N/NC(=O)C2CCCCC2)c(OC)cc1Cl	-0.6	-3	/	/	/
CCC(C)N1CCNCC1 (centres undefined)	-1.3	3	/	0%	4
Cc1ccc2c(c1)C(c1ccccc1)N(C(=O)c1ccc(Br)o1)CC(=O)N2 (centres undefined)	8.1	2	-42	/	6	Arbovirus anti repeat=-12
Cc1ccc(C2(C)NC(=O)N(CC(=O)Nc3ccccc3C(=O)N3CCCCC3)C2=O)cc1 (centres undefined)	-6.2	-13	/	/	/
NS(=O)(=O)c1ccc(CNC(=S)Nc2ccc(Cl)c(Cl)c2)cc1	7.4	-14	/	1%	-9
CC(C)Cc1nnc(NC(=O)CN2C(=O)NC3(CC(C)CC(C)(C)C3)C2=O)s1 (centres undefined)	-2.4	-3	/	/	/
CCOC(=O)c1c(N)sc2c(OC)c(Br)ccc12	5.1	73	-11	-3%	-16	Arbovirus anti repeat=-7
CC(C)=CCN1CCN(C/C(Cl)=C/c2ccccc2)CC1CCO (centres undefined)	-1.0	-3	/	-7%	/
O=Cc1ccc(OCc2ccc3ccccc3c2)cc1	-0.2	11	/	/	/
O=C1NC(=O)/C(=C\c2ccccc2OCc2cccc([N+](=O)[O-])c2)N1	2.1	3	-32	6%	-10
CC(C)n1cc(-c2ccc(Cl)cc2)cc(C#N)c1=O	5.0	34	-11	-13%	2
O=C(Nc1ccc(Nc2ccncc2)cc1)c1ccc([N+](=O)[O-])cc1	-0.2	-7	/	-1%	/
CC(=O)NC(CC(=O)NCCOc1ccccc1F)c1ccccc1 (centres undefined)	1.4	-7	/	/	/
CCOC(=O)/C(C#N)=C\c1ccc(OC)c(OC)c1	0.9	2	/	-4%	15
CCCCn1c(O)c(/C=N/N2CCCCC2c2cccnc2)c(=O)[nH]c1=S (centres undefined)	-8.1	6	-14	-3%	2
CC(=O)NC1=NN(C(C)=O)C(c2ccco2)S1 (centres undefined)	-0.7	-8	/	4%	/
O=C(O)c1cccc2c1C(=O)N(CC1CCCO1)C2 (centres undefined)	-0.8	1	/	-2%	-1
CCOc1ccc(N2CC(C(=O)NNC(=O)c3ccc(Br)cc3)CC2=O)cc1 (centres undefined)	-3.1	-13	/	/	/
COc1cccc(/C=N/Nc2ncc(C(F)(F)F)cc2Cl)c1O	-2.4	99	-4	65%	-32
O=C(c1cc([N+](=O)[O-])[nH]n1)N1CCSCC1	/	-9	/	-3%	/
CCC(CC)c1nnc(NC(=O)C2CC(=O)N(CCc3ccc(F)cc3)C2)s1 (centres undefined)	-3.2	-1	/	/	/
CC(C(c1ccc2c(c1)OCO2)c1c(N)n(C)c(=O)n(C)c1=O)[N+](=O)[O-] (centres undefined)	-4.0	100	/	/	/
Cc1coc2cc3oc(=O)c(CCC(=O)N[C@@H](CCCNC(N)=O)C(=O)O)c(C)c3cc12	-4.5	1	/	/	/
NS(=O)(=O)c1ccc(CNC(=O)c2ccncc2)cc1	-4.2	6	/	/	/
CCOC(=O)c1ccc(N2C(=O)c3n[nH]c(-c4ccco4)c3C2c2ccc([N+](=O)[O-])cc2)cc1 (centres undefined)	32*	/	1	9.1µM*	-18
CC1(C)CC2CC(C)(CN2C(=O)C23CCC(C)(C(=O)C2)C3(C)C)C1 (centres undefined)	-0.4	3	-20	-2%	-8
COc1ccc(C(CNC(=O)c2ccc(NS(=O)(=O)c3ccc(F)cc3)cc2)N2CCOCC2)cc1 (centres undefined)	-0.7	-8	/	/	/
COc1ccccc1-c1ccc(=O)n(CC(=O)NC(C)(C)C)n1	-6.7	?	-53	-8%	-3
Cc1ccc(C)c(N2CCN(CCCNC(=O)Cn3cccc3C(=O)c3ccccc3C)CC2)c1	3.2	78	/	15%	-30
Cc1cccn2c(CN(C)C3CCCc4ccccc43)c(C(=O)N3CCOCC3)nc12 (centres undefined)	3.4	7	/	2%	9
Cc1nn(C)c(C)c1S(=O)(=O)N(CC(=O)NCCCOC(C)C)c1ccc(C(C)C)cc1	3.3	-7	-52	-5%	-3
O=C(COc1ccc(S(=O)(=O)N2CCCC2)cc1Cl)NCc1cccnc1	-1.3	-6	/	/	/
CCOC(=O)C(NS(=O)(=O)c1ccccc1)(C(F)(F)F)P(=O)(OCC(C)C)OCC(C)C (centres undefined)	3.2	3	-8	5%	16
COCCCN1C(=O)C(=O)/C(=C(/O)c2ccc(S(=O)(=O)N3CCOCC3)cc2)C1c1ccc(Cl)cc1 (centres undefined)	0.4	-4	/	/	/
COc1ccc(S(=O)(=O)N2CCC(C(=O)NCCc3c[nH]c4ccccc34)CC2)cc1	-0.5	1	/	/	/
Cc1ccc(-n2c(O)c(C=NCc3ccccn3)c3ccccc3c2=O)cc1	2.7	5	1	3%	-11
CCc1cc(C(=O)N2CCCC(N3CCN(c4cccc(C(F)(F)F)c4)CC3)C2)n(C)n1 (centres undefined)	2.1	-3	/	/	/
Cc1ccc2nc(SCc3ccc([N+](=O)[O-])cc3)nc(C)c2c1	-0.7	-1	-47	1%	-1
CCOC(=O)c1sc(N2C(=O)C(O)=C(C(=O)c3ccc(C)o3)C2c2ccc(OC)c(OC)c2)nc1C (centres undefined)	-8.3	15	/	/	/

Retrieved by compound from the entries so far, 4 records:
SMILES	RecA intein inh	Mtb betalactam	YopH inh	Mtb H37Rv	Arbovirus anti	others
COc1ccccc1-c1ccc(=O)n(CC(=O)NC(C)(C)C)n1	-6.7	?	-53	-8%	-3
Cc1nn(C)c(C)c1S(=O)(=O)N(CC(=O)NCCCOC(C)C)c1ccc(C(C)C)cc1	3.3	-7	-52	-5%	-3
Cc1cccn2c(CN(C)C3CCCc4ccccc43)c(C(=O)N3CCOCC3)nc12 (centres undefined)	3.4	7	/	2%	9
CCc1cc(C(=O)N2CCCC(N3CCN(c4cccc(C(F)(F)F)c4)CC3)C2)n(C)n1 (centres undefined)	2.1	-3	/	/	/

(list continues)
SMILES	RecA intein inh	Mtb betalactam	YopH inh	Mtb H37Rv	Arbovirus anti	others
COC(=O)c1cc(NC(=O)CC2NC3CCCCC3NC2=O)cc(C(=O)OC)c1 (centres undefined)	-2.1	-5	-28	-9%	0
Cc1ccc(N(C)S(=O)(=O)c2c(C)[nH]c(C)c2C(=O)N2CCCC2)cc1	-0.9	?	/	/	/
CC1(C)CC(NC(=O)CC(c2ccccc2)c2ccccc2)CC(C)(C)N1	1.5	-4	3	3%	-5
C=CCN(c1ccc(C(=O)Nc2ccc(C)cc2)cc1)S(C)(=O)=O	3.8	4	/	-1%	2
CCOc1ccc(C(=O)CCN2CCCCCC2)cc1	-3.1	98	-48	8%	2
CCOC(=O)C1=C(CNCc2ccc(C)cc2)NC(=O)NC1c1cc(C)ccc1C (centres undefined)	11	-4	1	4%	9
CC(C)(C)c1ccc(C(=O)c2c[nH]c(C(=O)NCc3cccs3)c2)cc1	2.3	-11	-20	-7%	1
O=C1NC(=O)N(Cc2ccco2)C(=O)/C1=C/c1cccn1CCOc1ccccc1Cl	-3.9	12	-21	0%	-4
Cc1nnc(C)n1/N=C/c1cccs1	0.0	-5	-38	7%	0
COCCn1c(C)cc(C(=O)CN2CCCCC2)c1C	1.5	-10	/	-1%	6
CCC(C)NC(=O)CSc1nc2c(sc(=S)n2Cc2ccco2)c(=O)n1-c1ccccc1 (centres undefined)	1.7	7	-5	1%	-11
O=C(NNC(=O)c1cc2c(s1)CCCC2)c1ccccc1	0.6	5	-2	7%	6
Cc1ccccc1OC(=O)c1cccnc1	1.6	-5	/	/	/
COc1cc2ccc(=O)oc2c(O[C@@H]2O[C@H](CO)[C@@H](O)[C@H](O)[C@H]2O)c1O	-2.4	2&-2	/	/	/
Cc1cc(C)cc(C(=O)N2CCN(c3ccccn3)CC2)c1	2.0	2	/	-1%	-6
O=C1C2C3C=CC([C@@H]2C(=O)N1c1nccs1)C31CC1 (some centres undefined)	-1.4	-8	-11	-11%	4
O=C1C2CC=CCC2C(=O)N1Cc1nnc(-c2ccccc2Br)o1 (centres undefined)	2.1	0	/	-6%	/
CCOC(=O)c1c(N)ssc1=S	-0.5	0	-47	21%	0
Fc1ccc(OCc2nnc(-c3ccccc3Br)o2)c(Cl)c1	1.6	1	/	/	/
CC(C)N(Cc1nc(-c2ccc(Cl)cc2)no1)C(=O)c1cccs1	14	-5	-33	-3%	-10
O=C(NNC1=NC2(CCCC2)Cc2ccccc21)c1cccnc1	-2.4	3	/	4%	-3
Cc1ccc(S(=O)(=O)Nc2c(C)[nH]c(=O)[nH]c2=O)cc1C	-0.1	-4	-37	3%	-12
Cc1ccc(S(=O)(=O)NCc2ccco2)cc1C	-0.5	7	-23	-15%	0	Arbovirus anti repeat=-1
Cc1ccc(Nc2c(-c3ccc(N4CCOCC4)cc3)nc3cnccn23)cc1	-15	-6	/	-5%	/
C=CCn1c(COc2ccc(F)cc2)nnc1SCC(=O)NC(=O)NCc1ccco1	1.3	-6	-31	-8%	-2
COc1cc(NC(=O)C/C(C)=N/NC(=O)C(=O)NCCO)c(OC)cc1Cl	0.7	-1	/	-7%	/
O=C(C(Cc1ccccc1)n1cccc1)N1CCN(c2cccc(Cl)c2)CC1 (centres undefined)	23	-2	-45	14%	-22
CC(C)(C)c1ccc(-c2nnc(SCC(=O)Nc3sc4c(c3C#N)CCCC4)o2)cc1	6.6	54	-23	56%	7
O=C(Cn1cc(C(F)(F)F)ccc1=O)Nc1ccc(N2CCOCC2)cc1	-0.7	-5	/	3%	13
O=[N+]([O-])c1cccnc1Sc1ccccc1Cl	-12	3	/	/	/

Among those listed so far, 3 have a cyano group:
SMILES	RecA intein inh	Mtb betalactam	YopH inh	Mtb H37Rv	Arbovirus anti	others
CC(C)n1cc(-c2ccc(Cl)cc2)cc(C#N)c1=O	5.0	34	-11	-13%	2
CCOC(=O)/C(C#N)=C\c1ccc(OC)c(OC)c1	0.9	2	/	-4%	15
CC(C)(C)c1ccc(-c2nnc(SCC(=O)Nc3sc4c(c3C#N)CCCC4)o2)cc1	6.6	54	-23	56%	7

(cont.)
SMILES	RecA intein inh	Mtb betalactam	YopH inh	Mtb H37Rv	Arbovirus anti	others
CC(C)Oc1ccc(Cl)cc1Nc1nc(NCCO)nc(N2CCCC2)n1	4.6	95	/	69%	/
Cn1nccc1C(=O)NC1CCCc2c1cnn2-c1cc(F)cc(F)c1 (centres undefined)	2.9	6	/	/	/
CCCCN1C(=O)CC(N2CCOCC2)C1=O (centres undefined)	1.6	1	-2	-9%	5
C/C(Cn1nnc([N+](=O)[O-])n1)=N\NC(=O)c1ccccc1Cl	-2.4	4	3	5%	-9
CC(=O)Nc1ccc(OCC(O)Cn2nc(C)c(C)c2C)cc1 (centres undefined)	-1.2	-2	/	/	/
